# VDR inhibitor – Inhibitors of the vitamin D receptor (VDR): qHTS. Vitamin D3 receptor (Homo sapiens), P11473. VDR-SRC2-3 peptide fluorescence polarization, 2 h. Potency, µM, for the others: max response, negative = inhibition, usual class: inhibitors. 400,000 compounds, 0.93% hits; active = well fitted inhibition curve with a large enough effect; inconclusive = small, poorly fitted or top-dose-only effect, or another doubt; inactive = no such curve, though single readings can be large or run the other way; note: series mostly up to about 120 µM
# Target sequence (P11473 whole entry, looked up): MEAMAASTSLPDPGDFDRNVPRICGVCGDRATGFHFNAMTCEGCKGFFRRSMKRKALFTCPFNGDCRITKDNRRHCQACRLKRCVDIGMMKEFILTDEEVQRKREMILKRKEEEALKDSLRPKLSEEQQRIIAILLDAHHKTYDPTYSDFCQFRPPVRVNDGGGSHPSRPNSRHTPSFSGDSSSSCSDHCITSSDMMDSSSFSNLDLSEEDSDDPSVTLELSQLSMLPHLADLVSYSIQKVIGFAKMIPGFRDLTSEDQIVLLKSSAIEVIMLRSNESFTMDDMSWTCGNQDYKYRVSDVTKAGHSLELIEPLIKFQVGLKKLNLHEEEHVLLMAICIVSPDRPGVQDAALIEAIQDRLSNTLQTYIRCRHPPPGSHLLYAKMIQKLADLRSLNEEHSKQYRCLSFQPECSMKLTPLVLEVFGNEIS
#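 Fluorescence polarization assay of small-molecule disruption of VDR binding to coregulator peptide SRC2-3. Compounds and controls pin-transferred, then read after 2 h incubation at ambient room temperature.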
# * hit, by the source's call; ? = inconclusive; & = joins results of further samples. % is set by controls: 0 for no effect and ±100 for the full control effect; potency is the fitted concentration of half-maximal effect. These rows are one share of the data; count on the stated rates, not on these rows.
Structure | VDR inhibitor
Cc1ccc(N(C(=O)CC2NC(=O)NC2=O)C2(C(=O)NC3CCCC3)CCCCC2)cc1 (stereo not drawn) | -11.6%
CCOc1ccc(/C=C/C(=O)OC(C)C(=O)NC2CCCCC2C)cc1OC (stereo not drawn) | -17.6%
C[C@H](CO)N1C[C@H](C)[C@@H](CN(C)C(=O)Nc2ccc3c(c2)OCO3)Oc2ccc(NC(=O)Cc3ccccc3)cc2C1=O | 0.9%
COc1ccc(CNS(=O)(=O)c2c(C)[nH]c(C)c2C(=O)N2CCCC2)cc1 | -12.9%
CC1=C(c2ccc(C(C)C)cc2)S(=O)(=O)NC1=NCc1ccc(OC(C)C)cc1 | 14.4%
Cc1ccc(-c2nc(N/N=C/c3cccnc3)c3ccccc3n2)cc1 | 6.6%
O=C(NCCCCc1ccccc1)c1cccc(NC(=O)C2CCCCC2)c1 | -11.0%
Cc1c(O)ccc(C(=O)COc2ccc(F)cc2)c1O | 0.0%
Cc1ccc(CSCCC(=O)N2CCN(c3ccc(F)cc3)CC2)cc1 | -9.1%
O=C(Nc1sc2c(c1C(=O)O)CCC2)c1ccccc1 | 7.8%
CCN(CC)S(=O)(=O)c1ccc(C)c(NC(=O)CNCCN(C(C)C)C(C)C)c1 | -8.2%
Cc1cc(CNC(=O)c2cccc([N+](=O)[O-])c2)c2ccccc2n1 | -2.9%
CCOc1ccc(Br)cc1C(=O)N/N=C/c1cccnc1 | -15.2%
O=C(Nc1cccnc1)c1cc(-c2ccc(Br)cc2)on1 | -10.7%
CCSc1ccc(C(=O)Nc2cccc(C)n2)cc1[N+](=O)[O-] | 6.7%
O=C(Nc1ccc(CN2CCOCC2)cc1)c1cc(Br)ccc1Cl | 6.3%
O=C(CSc1n[nH]c(=O)[nH]c1=O)c1ccc([N+](=O)[O-])cc1 | -2.1%
CCCCCCCCC1OC1CCCCCCCC(=O)O (stereo not drawn) | 0.2%
CN1CCC(N(C)S(=O)(=O)c2ccc(Cl)cc2)CC1 | 13.3%
CCc1ccccc1NC(=O)CSc1ncccc1C(=O)O | 0.6%
Cc1nc(/C=C/c2ccccc2)[nH]c(=O)c1-c1ccccc1 | -2.0%
CCOc1ccc(NC(=O)CC(=O)Nc2ccc(OCC)cc2)cc1 | 7.9%
CCCOc1ccc(/C(O)=C2\C(=O)C(=O)N(c3ccccn3)C2c2ccccc2F)cc1C (stereo not drawn) | -5.7%
CC(=O)N1CCOc2ccc(S(=O)(=O)N3CCN(c4cc(C)ccc4C)CC3)cc21 | -15.0%
CC(OC(=O)C1CC(=O)N(Cc2ccco2)C1)C(=O)Nc1cccc(C#N)c1 (stereo not drawn) | 2.7%
COc1ccccc1C(=O)NC(=O)COC(=O)c1cccc(OC(F)F)c1 | 1.3%
CN(C)CCCN(C(=O)c1ccc(S(=O)(=O)N(C)Cc2ccccc2)cc1)c1nc2cc3c(cc2s1)OCO3 | 3.5%
COc1ccc(NC(=O)C2CCC(N3C(=O)C4CCCCC4C3=O)CC2)cc1 (stereo not drawn) | -1.3%
CCC(CO)Nc1ccc(-c2nn(C)c(=O)c3ccccc23)cc1[N+](=O)[O-] (stereo not drawn) | 8.4%
COc1ccc(CNc2oc(COc3ccccc3)nc2C#N)cc1 | -1.5%

# Another view of part of the listing above:
VDR inhibitor	Compound
6.7%	CCSc1ccc(C(=O)Nc2cccc(C)n2)cc1[N+](=O)[O-]
6.3%	O=C(Nc1ccc(CN2CCOCC2)cc1)c1cc(Br)ccc1Cl
-2.1%	O=C(CSc1n[nH]c(=O)[nH]c1=O)c1ccc([N+](=O)[O-])cc1
0.2%	CCCCCCCCC1OC1CCCCCCCC(=O)O (stereo not drawn)

# More records.
Structure | VDR inhibitor
O=C(CN1CCN(Cc2ccccc2)CC1)Nc1ccc2c(c1)CCC2 | 6.8%
O=C1NCCCC1C(=O)N/N=C/c1ccccc1O (stereo not drawn) | 4.0%
Cc1nn(C)cc1C(C)NC(=O)c1cc(COc2c(F)cccc2F)on1 (stereo not drawn) | 18.6%
Cc1nonc1C(=O)N1CCCC(Nc2ccc(C(C)C)cc2)C1 (stereo not drawn) | -1.1%
Cc1c(O)c(=O)ccn1C | -9.7%
CC1CN/C(=C\C(=O)c2ccccc2)C(=O)N1 (stereo not drawn) | 2.5%
CCCn1nc(NS(=O)(=O)c2ccccc2)c2cc3cc(C)ccc3nc21 | 5.4%
Cc1nn(C)c(C)c1S(=O)(=O)NC1CCCc2ccccc21 (stereo not drawn) | -9.9%
CN(CCc1ccccn1)Cc1ccc(Cl)cc1 | -9.4%
Cc1cc(N2CC(C)OC(C)C2)n2cc(-c3ccccc3)nc2n1 (stereo not drawn) | -7.5%
Cc1cc2ccccc2n2c(SCC(=O)NCC3CCCO3)nnc12 (stereo not drawn) | 20.6%
O=C(COC(=O)C1=COCCO1)NCc1ccc(Cl)cc1 | -6.5%
CCOc1ccccc1NC(=O)c1cc(-c2cc(OC)c(OC)c(OC)c2)nc2ccccc12 | 9.7%
Cc1ccc(NC(=O)COC(=O)Cc2csc(-c3ccc(Cl)cc3)n2)cc1C | -3.0%
CC1CC(N(C(=O)c2ccc(Cl)cc2)c2ccccc2)c2ccccc2N1C(=O)c1ccco1 (stereo not drawn) | 3.1%
COc1ccc(C)cc1S(=O)(=O)Nc1cc2c3c(c1)CCC(=O)N3CCC2 | 20.0%
COc1cc2c(cc1OC)C(=O)OC2 | 5.8%
CCOc1ccc(OCCC(=O)N(CC(=O)Nc2ccccc2C(F)(F)F)Cc2ccco2)cc1 | -27.1%
COc1ccccc1NC(=S)N(Cc1ccco1)Cc1cc2cc(C)cc(C)c2[nH]c1=O | 5.4%
COc1ccc(C(=O)NNC(=O)Cc2ccc(Cl)cc2)cc1 | 7.6%
Oc1c(Cl)cc(Cl)cc1/C=C/c1ccc2cccc(O)c2n1 | -7.6%
CNC(=S)NNC(=O)CSCc1c(Cl)cccc1Cl | 4.6%
Cc1ccc(S(=O)(=O)N2CCOCC2)cc1NC(=O)COC(=O)CCC(=O)c1cccs1 | -4.0%
O=C(OC1CCOC1=O)c1cncc(Br)c1 (stereo not drawn) | -20.5%
O=C(NC1CCN(Cc2ccccc2)CC1)c1ccc(Cn2c(=O)c3ccccc3n(Cc3ccc(F)cc3)c2=O)cc1 | -9.0%
CCOc1ccccc1N(CC(=O)NCC1CCCO1)C(=O)CCC(=O)Nc1cc(C)on1 (stereo not drawn) | -23.0%
Cc1sc2ncnc(SCC(=O)N3CCCC3=O)c2c1C | 21.2%
O=C(COc1ccc(Cl)cc1Cl)OCC(=O)c1ccc[nH]1 | -7.0%
Cc1ccc(NC(=O)Cn2cc3c(n2)CCC(C)C3)cc1C (stereo not drawn) | 3.7%
Cc1cc(C)c(S(=O)(=O)NCCCn2ccnc2)cc1C | -26.5%
O=C(COC(=O)Cc1ccccc1F)NCCNC(=O)COC(=O)Cc1ccccc1F | -9.2%
Cc1nnc(SCC(=O)Nc2sccc2C#N)s1 | 9.5%
CC(C)(C)CC(=O)Nc1cc2c3c(c1)CCC(=O)N3CCC2 | 1.3%
CCN(CC)c1cc(C)c2cc(NC(=O)c3cccc(F)c3)ccc2n1 | -12.1%
O=C(Cn1c(=O)n(Cc2ccccc2)c(=O)c2sc3ccccc3c21)Nc1ccccc1F | 4.0%
COc1ccccc1N1CCN(C(=O)CCc2nnc3n(C)c(=O)c4sccc4n23)CC1 | -4.3%
Cc1nc(C(=O)N(C)C)nn1-c1ccc(Cl)cc1Cl | 2.6%
CC(=O)O[C@@H]1C(CO[Si](C)(C)C(C)(C)C)=C(Br)C(=O)[C@@H]2O[C@]12C | 25.1µM*
CCc1ccc(NC(=O)Cn2cccc2)cc1 | -0.3%
Cc1ccc(Cl)cc1N1CCN(C(=O)CCS(=O)(=O)c2ccc3c(c2)NC(=O)CO3)CC1 | -10.8%
CCOC(=O)/C(=N/Nc1ccccc1)c1csc(Nc2ccccc2)n1 | -0.1%
NC(=O)C1CCN(c2ncnc3c2c(-c2ccccc2)cn3-c2ccccc2)CC1 | -3.6%
O=C(CCN1C(=O)S/C(=C\c2ccccc2)C1=O)Nc1ccc(S(=O)(=O)Nc2nccs2)cc1 | -1.6%
C=CCN(CC=C)S(=O)(=O)c1ccc(NC(=S)NC(=O)/C=C/c2ccccc2)cc1 | 7.4%
CCc1cccc(NC(=O)COc2cc(=O)n(CC)c3ccccc23)c1 | -1.0%
Cc1ccc(Nc2nc(C(=O)NCCCN3CCOCC3)cs2)cc1 | -0.1%
COC(=O)Cn1cnc2sc3c(c2c1=O)CCCC3 | 3.7%
C=CCNCCOCCOc1ccc(C)cc1Br | -1.9%
O=S(=O)(c1cccc(F)c1)N1CCc2sccc2C1c1ccc(OC(F)(F)F)cc1 (stereo not drawn) | -2.2%
CN(C)/C=C1\SC(=S)N(N2C(=O)C3C4C=CC(C4)C3C2=O)C1=O (stereo not drawn) | 3.6%
CCN(CC(=O)NCc1ccc(F)cc1)C(=O)/C=C/c1ccc(S(=O)(=O)N(CC)CC)cc1 | -12.6%
O=C1CSC(c2ccc(Cl)c(Cl)c2)N1c1nccs1 (stereo not drawn) | -17.4%
CCCN(CCC)C(=O)c1c[nH]c2ccc(S(=O)(=O)N(C)c3ccc(Cl)cc3)cc2c1=O | 0.2%
O=C(N/N=C/c1[nH]c2ccccc2c1Cl)c1cccc(Br)c1 | 4.7%
O=C(CCC1N=C2c3ccccc3N=C(SCc3cccc(F)c3)N2C1=O)NC1CCCCC1 (stereo not drawn) | -4.9%
CCO/C(=C/c1sc2ccc(OC)cc2[n+]1CCCS(=O)(=O)[O-])CC | -28.7%
O=C(NNc1ccccn1)C(c1ccccc1)c1ccccc1 | 1.8%
CCc1ccc(C(=O)COC(=O)CNC(=O)CNS(=O)(=O)c2ccccc2)cc1 | 13.7%
O=C(CCC(=O)N1CCOc2ccccc21)NCCCN1CCOCC1 | -18.4%
CN(C)CCCNC(=S)N1CCN(c2nc(-c3ccccc3)cs2)CC1 | 3.5%

# Remaining list, next part:
Structure | VDR inhibitor
COc1ccc(C(=O)Nc2ccc(N3CCN(C(=O)c4ccccc4C)CC3)cc2)cc1 | 11.5%
COC(=O)Cc1cc(=O)[nH]c(/N=C(\N)Nc2ccc(C)cc2)n1 | -2.7%
COc1ccc(CCN2C(=O)c3[nH]nc(-c4ccccc4O)c3C2c2cccc(O)c2)cc1OC (stereo not drawn) | -1.7%
O=S(=O)(c1ccc(Cl)s1)N1CCNCC1 | 6.5%
CC(=O)c1ccc(NC(=O)c2cc(S(=O)(=O)N3CCOCC3)ccc2C)cc1 | 3.1%&-9.3%
Cc1cc(C)c(C#N)c(N2CCSCC2)n1 | -4.1%
Cc1ccc(C)c(C(=O)CCC(=O)NCc2ccc(Cl)cc2)c1 | -10.1%
COCCNC(=O)/C(C#N)=C\c1ccc(CNS(=O)(=O)c2ccccc2)o1 | -16.3%
N#CCSc1nnc(-c2cccnc2)n1-c1ccccc1 | 0.7%
Cc1cc(C)nc(OC(C(=O)O)C(OCCc2ccccc2)(c2ccccc2)c2ccccc2)n1 (stereo not drawn) | -4.7%
CCN(CC(=O)Nc1ccc2c(c1)OCCO2)C(=O)/C=C/c1ccccc1 | -1.9%
CC(=O)N1CCN(S(=O)(=O)c2cccc(C(=O)Nc3ccccc3N3CCOCC3)c2)CC1 | -28.8%
Cc1ccc(C)n1NC(=O)c1ccc(Cl)cc1Cl | 16.3%
Cc1ccc2c(Cl)cc(Cl)c(OCC(=O)NC3CCS(=O)(=O)C3)c2n1 (stereo not drawn) | -16.5%
COC(=O)C1(NC(=O)NC2CCCCC2)CCCCC1 | -13.3%
COc1ccc(-n2nc(C(=O)Nc3cccc(C(F)(F)F)c3)c3c4ccccc4n(C)c3c2=O)cc1 | 0.4%
COc1ccccc1CNC(=O)c1cccn1-c1nnc(N2CCCC2)s1 | 2.0%
CNC(=O)C1CC(=O)N(Cc2ccccc2)C(=Nc2ccc(OC)cc2)S1 (stereo not drawn) | -16.9%
CC(=O)N1CCc2ccc(S(=O)(=O)N3CCN(C)CC3)cc21 | -19.0%
NC(=O)CSc1nc(C2CC2)nc2sc3c(c12)CCCC3 | -7.2%
O=C(CCCn1cnc([N+](=O)[O-])n1)Nc1ccc(F)c(Cl)c1 | -6.9%
Cc1cc(/C=C2/C(=O)NN(c3ccccc3)C2=O)c(C)n1-c1ccc(O)cc1 | ?
CC1(C)C2CCC1(C)C(OC(=O)CCn1ccnc1)C2 (stereo not drawn) | 6.9%
CCCN(CCO)Cc1ccc(F)c(Br)c1 | -0.9%
N/C(=N\OC(=O)CCn1cccc(C(F)(F)F)c1=O)c1ccc(OC(F)(F)F)cc1 | -6.0%
O=C1C2=C(c3ccccc31)[N+](=O)C1CCCCC1N2[O-] (stereo not drawn) | ?
Fc1ccc(CCNc2ncnc3[nH]ncc23)cc1 | -6.5%
O=C(O)CC(SCC(=O)Nc1ccc(Br)cc1)C(=O)O (stereo not drawn) | -5.0%
COc1ccc(NC(=O)Cn2nnc(C(=O)NCCc3ccc(OC)c(OC)c3)c2N)cc1 | 2.6%
Cc1sc2ncn(CC(=O)NCCCC(=O)N3CCC(C(N)=O)CC3)c(=O)c2c1C | 9.6%
O=C(/C=C/c1ccc(/C=C/C(=O)Nc2ccc(C3=NCCN3)cc2)cc1)Nc1ccc(C2=NCCN2)cc1 | ?
O=C(CSc1cccc[n+]1[O-])NC1CCCCC1 | 14.4%
Cn1c(=O)c(-c2cc(F)cc(F)c2)nc2cncnc21 | -0.5%
CCOC(=O)c1c(C)c(C(=O)N2CCCCCC2)c(C)n1CC | -28.4%
COc1ccc(/C=N/NC(=O)c2cc(-c3ccc(C)cc3C)nc3ccccc23)cc1COC(C)=O | 1.3%
CNc1ccn(C2CCCO2)c(=O)n1 (stereo not drawn) | -3.5%

# Source: PubChem (National Center for Advancing Translational Sciences (NCATS))
